NPYLR7 agonist: activates Aedes aegypti NPYLR7 receptor; HEK293T NPYLR7/Galpha15, GCaMP6s calcium fluorescence; activation, % at 10 µM; 0.15% of 270,000 active; AID 1259423; in the data active = activation above about 40%;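 note: 0% = vehicle and 100% = reference agonist at the receptor; some compounds past the cut are filed as inactive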
NPYLR7 agonist max-min: further read-out of NPYLR7 agonist, marked with its call; activation, %; measured here: Max-Min RFU normalised activation; some inactives read as strong as hits;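 span of the calcium signal over five minutes; 0% = vehicle and 100% = native peptide agonist; compound fluorescence can raise it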
Starred values were filed as active, the others as inactive; & = joins results of further samples. This is a subset; the hit share may differ from the screen's.

Start of the data: the first three entries, to show the layout:
1: COc1ccc2c(c1)CCc1c(-c3ccc(C(=O)NCCCSC)cc3)n[nH]c1-2
2: Cc1cccc2[nH]c(CNC(=O)[C@@H](N)Cc3c[nH]c4ccccc34)nc12
3: CN(C)C(CN)c1cccc2ccccc12 (stereo unspecified)
assay / compound,1,2,3
NPYLR7 agonist,29.0,5.5,-3.2
NPYLR7 agonist max-min,15.0,3.6,-4.3

Results, repeating the preview:
1: COc1ccc2c(c1)CCc1c(-c3ccc(C(=O)NCCCSC)cc3)n[nH]c1-2
2: Cc1cccc2[nH]c(CNC(=O)[C@@H](N)Cc3c[nH]c4ccccc34)nc12
3: CN(C)C(CN)c1cccc2ccccc12 (stereo unspecified)
4: C(=C(c1ncc(-c2ccccc2)o1)[n+]1ccccc1)c1ccc(-c2ccccc2)cc1
5: CCSc1nnc(NC(=O)CSc2nnc(NC(=O)c3ccccc3)s2)s1
6: Cc1occc1C(=O)N(C)Cc1csc(C(C)C)n1
7: Oc1ccc(F)cc1CN1CCC(n2cc(C3CCCC3)nn2)CC1
8: COc1cccc(CN(C)C(=O)CCn2cnc3sc4c(c3c2=O)CCCC4)c1
9: CCCCC(CC)C(=O)N1CCN(C(=O)c2cc(-c3ccccc3)n(-c3ccccc3Cl)c2C)CC1 (stereo unspecified)
10: CC(=O)c1ccc(Oc2cc(-n3nc(C)cc3C)nc(-c3ccccc3)n2)cc1
assay / compound,1,2,3,4,5,6,7,8,9,10
NPYLR7 agonist,29.0,5.5,-3.2,-0.2,19.7,-3.6,4.4,-2.5,-1.9,-10.3
NPYLR7 agonist max-min,15.0,3.6,-4.3,7.7,12.4,-8.0,-3.1,-0.8,7.7,-15.9

Full records as entered above. Screens in order: NPYLR7 agonist	NPYLR7 agonist max-min
COc1cccc(CN(C)C(=O)CCn2cnc3sc4c(c3c2=O)CCCC4)c1 as listed: -2.5	-0.8
Cc1occc1C(=O)N(C)Cc1csc(C(C)C)n1 as listed: -3.6	-8.0
CC(=O)c1ccc(Oc2cc(-n3nc(C)cc3C)nc(-c3ccccc3)n2)cc1 as listed: -10.3	-15.9
CCCCC(CC)C(=O)N1CCN(C(=O)c2cc(-c3ccccc3)n(-c3ccccc3Cl)c2C)CC1 (stereo unspecified) as listed: -1.9	7.7
Cc1cccc2[nH]c(CNC(=O)[C@@H](N)Cc3c[nH]c4ccccc34)nc12 as listed: 5.5	3.6

(continued)
11: COCCn1c(O)c(C=NCC(N)=O)c(=O)[nH]c1=S
12: O=C(NC1CCCc2ccccc21)c1cncn1-c1ccc(-c2ccc(F)c(F)c2)cc1 (stereo unspecified)
13: COc1ccc(-c2nnc(NC(=O)c3ccccc3Br)s2)c(OC)c1
14: CCn1nc(C)c(C(=O)N2CCCC3(CC2)CNC(=O)O3)c1C (stereo unspecified)
15: Cc1nc(SCC(=O)N2CCC(C)CC2)c2c3c(sc2n1)CCC3
16: C=c1ccccc1=C1C=NNC(=NCc2nc(C)c(C)s2)N1
17: Cc1cccc(Cn2c(CCNC(=O)CCC(C)O)nc3ccccc32)c1 (stereo unspecified)
18: COc1ccccc1C(=O)Nc1nnc(CC(C)C)s1
19: CC(=O)N(C)c1ccc(N=Nc2c(C)[nH]n(-c3nc(-c4ccccc4)cs3)c2=O)cc1
20: COC1C[C@](OCc2cccc(Cl)c2)(C(=O)NCC(C)C)C[C@H]2OC(C)(C)O[C@@H]12 (stereo partly specified)
assay / compound,11,12,13,14,15,16,17,18,19,20
NPYLR7 agonist,7.3,-12.6,-0.1,4.9,0.9,-0.9,-4.4,-9.7,-8.9,-4.0
NPYLR7 agonist max-min,2.9,-7.5,-5.8,5.8,-1.0,0.1,-4.7,-11.9,-12.2,14.4

21: CCOC(=O)Cn1c(C)c(C)n2c3c(=O)n(C)c(=O)n(C)c3nc12
22: O=S(=O)(NN=Cc1c[nH]c2ccccc12)c1ccccc1
23: O=C(Nc1ccccc1Cl)Nc1ccnn1C1CCN(C(=O)CO)CC1
24: O=C(CN1CCCc2cc(F)ccc21)NCc1ccco1
25: O=C(NCCc1ccccn1)c1coc(CN(CCc2c[nH]c3ccccc23)Cc2cccc(F)c2)n1
26: CCCCN(CC(N)=O)C(=O)c1c(Cl)nc2ccccn12
27: CC(C)NC(=O)N(Cc1ccco1)Cc1nccn1Cc1cccc(C(F)(F)F)c1
28: N#CC(C#N)=NNc1ccc2c(c1)OCCO2
29: CCOC(=O)CNC(=O)NC(C(=O)Nc1nnc(-c2cccc(OC)c2)s1)C(C)CC (stereo unspecified)
30: Cc1cc(-c2ccc3nc(C(=O)N4CCN(c5ccccn5)CC4)cn3c2)ccc1F
assay / compound,21,22,23,24,25,26,27,28,29,30
NPYLR7 agonist,-1.5,8.4,9.1,-1.9,18.1,11.4,2.2,-6.0,2.2,3.0
NPYLR7 agonist max-min,20.4,6.2,6.3,-2.8,13.6,7.9,2.9,-8.7,-4.4,4.4

31: COCCC(=O)Nc1ccc2c(c1)CN(C(=O)c1ccc(CSC)o1)CC2
32: C=CCN(CCC)C(=O)c1cc2ccccc2o1
33: O=C(NC(c1ccc(Cl)cc1)c1cnccn1)C1CCN(Cc2ccc(Cl)cc2)CC1 (stereo unspecified)
34: COc1cccc(NC(=O)CCC2CCN(S(=O)(=O)c3cccnc3)CC2)c1
35: CN1CCC(=NNC(=O)CN(c2ccc(Oc3ccccc3)cc2)S(C)(=O)=O)CC1
36: COCc1cnc2c(c1SCC(=O)N1CCCC1)c(=O)n(C)c(=O)n2C
37: O=C(Nc1ccc2c(c1)OCO2)C1(S(=O)(=O)c2ccccc2)CCCC1
38: O=S(=O)(c1ccccc1F)N1CCC(Cc2ccc(C(F)(F)F)cc2)CC1
39: COc1cc(CC(=O)N=c2sccn2C)cc(OC)c1OC
40: COc1cc(CSc2ncc(CO)n2CC(=O)NC2CCCC2)cc(OC)c1
assay / compound,31,32,33,34,35,36,37,38,39,40
NPYLR7 agonist,2.7&0.8,-4.9,6.2,1.6,-7.7,5.7,-0.8,5.1,2.0,4.8
NPYLR7 agonist max-min,-1.2&-2.7,-15.0,9.8,-1.6,-12.2,4.9,-5.1,6.0,-0.2,0.0

41: O=C(Cc1ccc(Cl)cc1)N1CCC(n2cnc3ccccc32)CC1
42: O=C(NCc1cccnc1)c1nn(-c2ccccc2F)c(=O)n(Cc2cccc(Cl)c2)c1=O
43: CC(C(=O)Nc1cc(Cl)cc(Cl)c1)N1CCC(C(=O)N2CCCC2)CC1 (stereo unspecified)
44: Cc1cccc(OCc2ccc(-c3nc(C#N)c(N4CCC(C(N)=O)CC4)o3)o2)c1
45: Cc1ccc(-c2nnc(NCCCN3CCOCC3)c3ccccc23)cc1
46: Cc1csc(C(NC(=O)c2cc(S(=O)(=O)N(C)C)c[nH]2)C2CC2)n1 (stereo unspecified)
47: COc1cc2nc(CC(C)(C)C)oc(=O)c2cc1OC
48: CCOc1ccc(C(=O)N2CCC3(CCOCC3)CC2)o1
49: Cc1cc(=O)[nH]c(NCCNC(=O)C2(C)CCC(C(=O)N(C)C)C2(C)C)n1 (stereo unspecified)
50: O=[N+]([O-])c1ccc(Oc2cccnc2[N+](=O)[O-])c(Cl)c1
assay / compound,41,42,43,44,45,46,47,48,49,50
NPYLR7 agonist,-6.9,11.7,0.7,-0.1,-1.7,1.0,-1.5,-4.5,2.7,10.4
NPYLR7 agonist max-min,-11.3,14.0,-0.1,7.6,0.1,-0.8,-2.4,-3.3,0.8,8.1

51: COc1ccc(CNCc2ccc3n2CCN=C3c2ccccc2)cc1
52: CN=c1scc(-c2ccccc2Br)n1N=Cc1cccc(O)c1
53: CCn1ncnc1CN1CCCC(c2n[nH]c(=O)n2-c2ccccc2)C1 (stereo unspecified)
54: CCOC(=O)C[n+]1c(C)cc(C)cc1C
55: COc1cc(NC(=O)CSc2n[nH]c(N)n2)cc(OC)c1OC
56: COc1cc2c(cc1NC(=O)COc1ccc([N+](=O)[O-])cc1)oc1ccccc12
57: CCOC(=O)c1nn(-c2ccccc2)c(=O)cc1OCC(=O)Nc1ccc(OC)cc1OC
58: CN(Cc1ccc2nsnc2c1)Cc1ncc[nH]1
59: COc1ccc(-c2ccc(OCCNC(=O)COc3ccccc3)nn2)cc1
60: Cc1cc(C(=O)CSc2nnnn2-c2ccccc2)c(C)n1-c1cccc(F)c1
assay / compound,51,52,53,54,55,56,57,58,59,60
NPYLR7 agonist,30.5,21.4,-2.9,4.4,-10.4,7.6,11.4,-1.8,-4.3,7.9
NPYLR7 agonist max-min,20.6,17.8,-4.0,3.2,-9.1,11.4,5.7,-3.5,-4.9,10.6

Overlap with the part before: two entries, then new ones.
59: COc1ccc(-c2ccc(OCCNC(=O)COc3ccccc3)nn2)cc1
60: Cc1cc(C(=O)CSc2nnnn2-c2ccccc2)c(C)n1-c1cccc(F)c1
61: CN(Cc1cc(Cl)nc(Cl)c1)CC1(O)CCCC1
62: Cn1c(=O)c2nc(NNC(=O)c3ccc(Br)cc3)cnc2n(C)c1=O
63: O=C(C1CCCC1)N(Cc1ccco1)Cc1nccn1Cc1ccccc1C(F)(F)F
64: Cc1nnc(SCCC(C)C)[nH]c1=O
65: COc1cccc(Oc2cc(C)nc(SCc3ccc(F)c(F)c3)n2)c1
66: O=C(NCCCOc1cccnc1)[C@H]1Cc2ccccc2CN1
67: CCCN(CC(=O)N(Cc1cccn1C)C1CC1)C(=O)Nc1ccccc1OC
68: C/C=C/C(=O)N1CCN(c2nccc(-c3ccc4c(c3)OCO4)n2)CC1
69: O=C(Cc1c(F)cccc1F)NS(=O)(=O)N1CCc2ccccc21
70: NC(=O)COc1ccccc1-c1[nH]cnc1-c1ccccc1
assay / compound,59,60,61,62,63,64,65,66,67,68,69,70
NPYLR7 agonist,-4.3,7.9,3.5,3.5,-0.7,0.7,15.1,19.1,-4.3,11.4,-4.3,-5.5
NPYLR7 agonist max-min,-4.9,10.6,2.9,-0.2,4.9,6.8,19.1,13.5,1.8,8.2,-4.2,-10.0

71: CCN(CC)c1ccc2cc(-c3nnc(Nc4ccccc4C(F)(F)F)s3)c(=O)oc2c1
72: COc1cccc(CNc2nccn3ccnc23)c1
73: CCCNS(=O)(=O)c1ccc(I)cc1
74: COc1cc(NC(=O)NCCc2ccc3c(c2)CCCN3C)cc(OC)c1
75: COc1ccc(NC(=O)Cn2nc(C(F)(F)F)c(Cl)c2C)cc1OC
76: Cc1cnn(C2CCCN(C(=O)c3cn[nH]c3-c3ccncc3)C2)c1 (stereo unspecified)
77: C=CCNC(=O)CN1CN(c2ccccc2)C2(CCN(S(=O)(=O)c3cccc(C(F)(F)F)c3)CC2)C1=O
78: CCn1c2ccccc2c2cc(NC(C)C(=O)N(C)C3CCS(=O)(=O)C3)ccc21 (stereo unspecified)
79: O=C(c1c(C(F)(F)F)ccc(Cl)c1F)N1CCN(c2nccc(-c3ccc(N4CCOCC4)cc3)n2)CC1
80: Cc1ccccc1CO[C@]1(C(=O)NN2CCOCC2)CC(OCc2cccc(OC(F)(F)F)c2)[C@@H]2OC(C)(C)O[C@@H]2C1 (stereo partly specified)
assay / compound,71,72,73,74,75,76,77,78,79,80
NPYLR7 agonist,-5.2,1.8,-0.8,-10.4,-7.4,1.4,33.6,3.3,7.2,4.2
NPYLR7 agonist max-min,-2.8,0.5,1.0,-12.3,-11.7,-1.4,37.1,4.5,-3.6,12.0

81: CCOC(=O)C(c1cccc(OC)c1)C1C=CC(NC(=O)c2c(Cl)cc(Cl)cc2Cl)C1 (stereo unspecified)
82: Cc1nc(=S)c2sc3nc4c(cc3c2[nH]1)COC(C)(C)C4
83: COc1cccc(CN2CCCC(O)(CN3CCCNCC3)C2=O)c1OC (stereo unspecified)
84: COc1ccc(CCOC(=O)[C@@H]2CCCN2C(=O)c2ccc(Br)cc2)cc1OC
85: COc1ccc(NC(=O)c2sc(=O)n(Cc3ccc(S(C)(=O)=O)cc3)c2C)cc1
86: Cn1nnnc1SCCNC(=O)c1ccc2nc(C3CCCCC3)oc2c1
87: COc1ccc(S(=O)(=O)Oc2cc(CN(CC(C)C)C(=O)Nc3ccccc3OC)ccc2OC)cc1
88: CSc1ccc(NC(=O)CCCc2nc3ccccc3c(=O)[nH]2)cc1
89: CN(CCc1cn[nH]c1)C(=O)c1coc(COc2cccc(F)c2F)n1
90: CCCCN1CC2=C(C1=O)C(c1ccc(OCC)cc1)NC(=O)N2 (stereo unspecified)
assay / compound,81,82,83,84,85,86,87,88,89,90
NPYLR7 agonist,2.6,3.8,6.7,1.0,6.0,6.1,2.1,4.6,19.2,-6.0
NPYLR7 agonist max-min,-2.6,3.0,5.0,-8.3,1.1,2.0,7.4,2.6,11.9,-7.1

91: CCCCCNC(=O)c1c(C(F)(F)F)nn(C2CCCN(C)C2)c1C (stereo unspecified)
92: Cc1ccn2cc(C(=O)N3CCC(n4nccc4NC(=O)CC(C)C)CC3)nc2c1
93: CCCOc1ccc(S(=O)(=O)n2cccn2)cc1C
94: CC(C)(Oc1ccc2c(c1)CCC2)C(=O)N1CCOC2(CNCCOC2)C1 (stereo unspecified)
95: O=C(O)c1csc(CSc2nnc(-c3ccco3)n2-c2ccc(Cl)c(Cl)c2)n1
96: COc1ccc(/C=C2N=C(/C=C/c3ccccc3)OC\2=O)c(OC)c1OC
assay / compound,91,92,93,94,95,96
NPYLR7 agonist,13.9,11.8,-0.9,9.3,-9.7,6.2
NPYLR7 agonist max-min,4.6,4.5,42.4,6.1,-5.5,6.2

Screening data as filed in PubChem.
